TRPV1 potentiator – HTS Assay for Compounds that Act as Potentiators of the Vanilloid Receptor 1 | Transient receptor potential cation channel subfamily V member 1 (Homo sapiens), Q8NER1 | TRPV1-expressing cells, Fluo-8 calcium influx, capsaicin EC20 potentiation; host cell line not named in the record; control for the full effect not named in the record | potentiation, % at 8.33 µM | 320,000 tested, 0.02% active | AID 540277, 2011; active means potentiation above 80%; inconclusive means 30% to 80%; inactive means below 30%; further: 0% is about no effect
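TRPV1-expressing cells were cultured overnight at 35.5C and loaded with Fluo-8 calcium dye for 40 to 90 min at room temperature. After a 10 s baseline, compound was added and calcium influx was read kinetically for 3 min (ex 480/em 520 nm).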
TRPML1 agonist – qHTS for Agonists of the Human Mucolipin Transient Receptor Potential 1 (TRPML1). Mucolipin-1 (Homo sapiens), Q9GZU1. TRPML1-expressing cells, Ca2+ dye fluorescence, FDSS; host cell line not named in the record; reference of the full effect not given here. activation, % (test concentration not listed). 410,000 tested, 0.12% active. AID 624414, 2012; in the data active = activation above about 50%; inconclusive = about 30% to 50%; inactive = below about 30%; further: 0% is about no effect; the text of the record puts the active cut at 80%
Target sequence (Q9GZU1 whole entry, looked up): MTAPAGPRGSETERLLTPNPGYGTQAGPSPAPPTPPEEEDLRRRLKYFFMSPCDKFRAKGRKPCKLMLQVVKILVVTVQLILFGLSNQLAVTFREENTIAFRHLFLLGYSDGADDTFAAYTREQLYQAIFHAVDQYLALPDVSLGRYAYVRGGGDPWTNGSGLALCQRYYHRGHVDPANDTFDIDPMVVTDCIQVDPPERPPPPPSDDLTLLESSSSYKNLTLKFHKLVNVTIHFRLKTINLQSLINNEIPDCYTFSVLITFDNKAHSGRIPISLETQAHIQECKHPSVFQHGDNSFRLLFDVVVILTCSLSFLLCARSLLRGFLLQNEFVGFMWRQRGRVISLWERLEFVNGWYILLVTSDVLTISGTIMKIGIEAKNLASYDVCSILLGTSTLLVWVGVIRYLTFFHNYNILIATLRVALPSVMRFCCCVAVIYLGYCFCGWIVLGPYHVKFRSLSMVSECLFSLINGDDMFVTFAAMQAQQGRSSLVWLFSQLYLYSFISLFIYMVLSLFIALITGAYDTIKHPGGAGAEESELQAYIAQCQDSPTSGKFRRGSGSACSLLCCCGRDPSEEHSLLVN
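Kinetic FDSS Ca2+ read in Tet-induced TRPML1-DL cells (ABD Ca8 dye plus quencher, 45-90 min RT loading): baseline, then compound, then 110 s agonist window; EC80 agonist 54-4 at 4uM final added afterwards for a 110 s antagonist window.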
D2 PAM – Beta-Arrestin HTS for Positive Allosteric Modulators of the Human D2 Dopamine Receptor: Potentiators. DiscoveRx D2 beta-arrestin cells, luminescence, 90 min; 100% = 57 uM dopamine signal. D(2) dopamine receptor (Homo sapiens), P14416. potentiation, % (concentration not given with the values). 360,000 tested, 0.23% active; active = potentiation of 50% or more; inconclusive = 30% to 50%; inactive = 30% or less;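 further: compound concentration not given in the record; tested on top of an EC20 dose of dopamine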
Target sequence (P14416 whole entry, looked up): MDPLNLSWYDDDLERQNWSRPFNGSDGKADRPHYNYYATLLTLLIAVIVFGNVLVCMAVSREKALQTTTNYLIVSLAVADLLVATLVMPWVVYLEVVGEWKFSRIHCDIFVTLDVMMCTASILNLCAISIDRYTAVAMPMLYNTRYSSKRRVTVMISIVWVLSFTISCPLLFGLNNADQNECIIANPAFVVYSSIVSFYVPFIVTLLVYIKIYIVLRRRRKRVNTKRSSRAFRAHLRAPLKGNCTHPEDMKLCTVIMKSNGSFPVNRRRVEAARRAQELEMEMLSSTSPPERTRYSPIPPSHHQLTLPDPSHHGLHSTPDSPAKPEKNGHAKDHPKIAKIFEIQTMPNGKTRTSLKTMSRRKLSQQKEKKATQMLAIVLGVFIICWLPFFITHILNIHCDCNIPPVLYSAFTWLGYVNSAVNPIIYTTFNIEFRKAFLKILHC
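PathHunter D2 cells, attached overnight at 37 deg C, received compound in DMSO plus dopamine at EC20 (50 nM final) for 90 min at 37 deg C. Beta-arrestin recruitment was read as luminescence after 1 h with detection reagent at ambient temperature.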
Six1-Eya2 blk – qHTS Assay for Inhibitors of the Six1/Eya2 Interaction; AlphaScreen GST-Six1/His-Eya2 binding, biochemical; hits give low values; control for the full effect not named in the record; AID 651725, 2012; 360,000 tested, 0.56% active; Homeobox protein SIX1 (Homo sapiens) + Protein phosphatase EYA2 (Homo sapiens), …; activity change, % (no concentration beside the values); in the data active = activity change below about -65%; inconclusive = about -30% to -65%; inactive = above about -30%; further: on the % scale 0 is the no-effect control and ±100 the full control effect; compound concentration not given in the record
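Homogeneous AlphaScreen proximity assay pairing GST-Six1 with His-tagged Eya2 (added as 5X mix: 250 nM and 500 nM) in 50 mM Tris pH 8.0, 300 mM NaCl, 1 mM TCEP. Glutathione donor and nickel acceptor beads; 1 h, 37 °C, dark.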
CtBP-E1A inh – qHTS Assay for Inhibitors of the CtBP/E1A Interaction | activity change, % (no concentration beside the values) | AlphaScreen GST-E1A/His-CtBP binding, 1536-well; hits give low values; control for the full effect not named in the record | CtBP / adenovirus E1A interaction (AlphaScreen) | 340,000 tested, 0.49% active | AID 651724, 2012; in the data active means activity change below about -65%; inconclusive means about -30% to -65%; inactive means above about -30%; further: on the % scale 0 is the no-effect control and ±100 the full control effect; compound concentration not given in the record
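Protein mix (5X: 125 nM each GST-E1A, His-CtBP) was incubated with pinned compound 2 h at 37 deg C in dark, in 50 mM Tris pH 8.0 buffer with 300 mM NaCl. Glutathione donor and nickel acceptor beads followed; AlphaScreen signal read after 1 h.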
TRPML1 inh – qHTS for Inhibitors of the Human Mucolipin Transient Receptor Potential 1 (TRPML1) | Mucolipin-1 (Homo sapiens), Q9GZU1 | TRPML1-inducible cells, Ca2+ dye fluorescence, FDSS; hits give low values; inhibition of EC80 agonist-evoked calcium signal | activity change, negative = inhibition, % (concentration not given with the values) | 390,000 tested, 0.02% active | AID 624415, 2012; in the data active means activity change below about -50%; inconclusive means about -30% to -50%; inactive means above about -30%;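 further: stimulus is agonist 54-4 at its EC80 concentration; on the % scale 0 is the no-effect control and ±100 the full control effect; compound concentration not given in the record; the text of the record puts the active cut at -80%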
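Tet-induced TRPML1-DL cells loaded with Ca8 no-wash calcium dye were read kinetically on FDSS. Compound addition was followed by EC80 agonist 54-4 (4 uM final); inhibition was read over 110 s.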
Starred values were filed as active, the others as inactive.

Start of the data: the first two entries, ahead of the listing:
`CC[N+]1(CC)CC2=Cc3c(ccc4ccccc34)C(C)C2C1` (stereo unspecified) gave TRPV1 potentiator 1.4, TRPML1 agonist 1.1, D2 PAM -8.5, Six1-Eya2 blk -1.8, CtBP-E1A inh -0.8 and TRPML1 inh -0.6.
Screening O=S(=O)(CCc1nc2ccccc2[nH]1)c1ccc(Br)cc1 returned TRPV1 potentiator 0.2, TRPML1 agonist -0.3, D2 PAM -13.4, Six1-Eya2 blk 8.1, CtBP-E1A inh -16.8 and TRPML1 inh -15.7.

Main list, previewed entries included:
`CC[N+]1(CC)CC2=Cc3c(ccc4ccccc34)C(C)C2C1` (stereo unspecified) gave TRPV1 potentiator 1.4, TRPML1 agonist 1.1, D2 PAM -8.5, Six1-Eya2 blk -1.8, CtBP-E1A inh -0.8 and TRPML1 inh -0.6.
Screening O=S(=O)(CCc1nc2ccccc2[nH]1)c1ccc(Br)cc1 returned TRPV1 potentiator 0.2, TRPML1 agonist -0.3, D2 PAM -13.4, Six1-Eya2 blk 8.1, CtBP-E1A inh -16.8 and TRPML1 inh -15.7.
`O=C1CC(Cc2ccc(Br)cc2)C(=O)N1c1ccccc1` (stereo unspecified) gave TRPV1 potentiator -3.9, TRPML1 agonist -0.5, D2 PAM -13.7, Six1-Eya2 blk 4.7, CtBP-E1A inh -21.4 and TRPML1 inh -8.9.
O=C(Nc1ccccc1C(F)(F)F)c1cc(-c2ccccc2O)on1 was read as TRPV1 potentiator 3.3, TRPML1 agonist 0.7, D2 PAM 4.2, Six1-Eya2 blk 1.4, CtBP-E1A inh 4.3 and TRPML1 inh 1.2.
COc1ccc(C(=O)N(Cc2ccccc2)c2cccc(C)c2)cc1 was read as TRPV1 potentiator -16.3, TRPML1 agonist 1.7, D2 PAM -12.6, Six1-Eya2 blk 10.9, CtBP-E1A inh 6.9 and TRPML1 inh 4.3.
Screening CCn1c(CNC(=O)c2ccco2)nnc1SCC(=O)c1ccccc1 returned TRPV1 potentiator 6.9, TRPML1 agonist -0.1, D2 PAM -5.2, Six1-Eya2 blk -0.1 and TRPML1 inh 12.2.
For COc1ccc(-c2nnc(SCC(=O)Nc3cc(S(=O)(=O)N4CCCCC4)ccc3Cl)n2N)cc1 the results were TRPV1 potentiator inconclusive, TRPML1 agonist 1.0, D2 PAM 1.4, Six1-Eya2 blk -0.7, CtBP-E1A inh 0.7 and TRPML1 inh -12.2.
Screening O=C(Nc1ccccc1C(=O)NCc1cccnc1)c1ccco1 returned TRPV1 potentiator 4.4, TRPML1 agonist -0.1, D2 PAM -13.5, Six1-Eya2 blk -0.5, CtBP-E1A inh -0.8 and TRPML1 inh -3.3.
`CCC(C)NC(=O)CSc1nnc(-c2cc(-c3cccs3)nc3ccccc23)o1` (stereo unspecified) gave TRPV1 potentiator 12.1, TRPML1 agonist 0.4, D2 PAM -13.2, Six1-Eya2 blk 3.5, CtBP-E1A inh -7.5 and TRPML1 inh 25.1.
For COc1ccc2nc(N3CCCC(C(=O)NCCCN4CCN(C)CC4)C3)sc2c1 (stereo unspecified) the results were TRPV1 potentiator 18.7, TRPML1 agonist 3.1, D2 PAM 10.4, Six1-Eya2 blk -1.5, CtBP-E1A inh 1.0 and TRPML1 inh -14.8.
For CC(=O)NCCNC(=O)C1(C)Cc2c(-c3ccccc3)ccnc2O1 (stereo unspecified) the results were TRPML1 agonist -0.5, D2 PAM -1.5, Six1-Eya2 blk 4.3 and CtBP-E1A inh 0.3.
Screening C/C(N)=N\S(=O)(=O)c1ccc(Cl)cc1 returned TRPV1 potentiator -1.3, TRPML1 agonist -0.8, D2 PAM -6.9, Six1-Eya2 blk 1.0, CtBP-E1A inh 3.6 and TRPML1 inh -5.4.
Screening CCNC(=S)N1CCN(C(=O)C(Cc2ccccc2)NC(C)=O)CC1 (stereo unspecified) returned TRPV1 potentiator -9.0, TRPML1 agonist -0.5, D2 PAM -0.6, Six1-Eya2 blk -0.5, CtBP-E1A inh -7.5 and TRPML1 inh 4.6.
Screening Nc1cccc2cccc([N+](=O)[O-])c12 returned TRPML1 agonist -0.2, D2 PAM -16.9, Six1-Eya2 blk -23.7, CtBP-E1A inh -23.0 and TRPML1 inh -10.8.
For Cc1ccc(-n2c(-c3ccccc3)n[nH]c2=S)cc1 the results were TRPV1 potentiator 6.7, TRPML1 agonist -1.1, D2 PAM -11.2, Six1-Eya2 blk -2.8, CtBP-E1A inh 4.5 and TRPML1 inh -11.5.
CCCc1cc(=O)oc2cc(C)c(CN3CCCC3)c(O)c12 was read as TRPV1 potentiator 4.0, TRPML1 agonist 0.4, D2 PAM 19.9, Six1-Eya2 blk -21.7, CtBP-E1A inh 4.9 and TRPML1 inh -2.2.
Cn1c(=O)c2c(nc3n2CCS3)n(C)c1=O was read as TRPV1 potentiator 0.5, TRPML1 agonist 0.5, D2 PAM -7.5, Six1-Eya2 blk -0.9, CtBP-E1A inh -0.3 and TRPML1 inh -15.4.
`CCn1c(C)csc1=NC(=O)c1ccccc1` gave TRPV1 potentiator -7.8, TRPML1 agonist 2.5, D2 PAM -7.6, Six1-Eya2 blk 2.6, CtBP-E1A inh 4.6 and TRPML1 inh 2.5.
O=C(O)C1C2CCC(C2)C1C(=O)Nc1ccc(Cl)c(Cl)c1 (stereo unspecified) was read as TRPML1 agonist 0.0, D2 PAM -4.2, Six1-Eya2 blk 15.0, CtBP-E1A inh 0.0 and TRPML1 inh 2.7.
Screening CCOc1cc(C)nc(N2CCC(C(=O)Nc3ccccc3OCC)CC2)n1 returned TRPV1 potentiator 16.5, TRPML1 agonist 2.0, D2 PAM 12.3, Six1-Eya2 blk 3.8, CtBP-E1A inh 6.8 and TRPML1 inh 23.3.
Cc1ccc(C(=O)c2ccccc2C(=O)O)c(O)c1 was read as TRPML1 agonist 0.8, D2 PAM -0.5, Six1-Eya2 blk 7.1, CtBP-E1A inh 8.8 and TRPML1 inh 3.5.
Cc1nn(CC(=O)OCC(=O)Nc2cccc(S(N)(=O)=O)c2)c(C)c1[N+](=O)[O-] was read as TRPML1 agonist -0.2, D2 PAM -1.4, Six1-Eya2 blk 2.0, CtBP-E1A inh 0.6 and TRPML1 inh -2.9.
For O=C(Nc1nccs1)c1ccc(-c2ccccc2[N+](=O)[O-])o1 the results were TRPV1 potentiator -17.6, TRPML1 agonist 2.7, D2 PAM -33.8, Six1-Eya2 blk -22.3, CtBP-E1A inh inconclusive and TRPML1 inh -19.2.
Screening Cc1ccc(S(=O)(=O)N(C)c2ccc(C(=O)NCc3cccnc3)cc2)cc1 returned TRPV1 potentiator -10.8, TRPML1 agonist 0.4, D2 PAM -22.8, Six1-Eya2 blk -9.8, CtBP-E1A inh -26.8 and TRPML1 inh -21.9.
Screening Fc1ccc(CNc2nc(-c3cccnc3)nc3ccccc23)cc1 returned TRPV1 potentiator -14.8, TRPML1 agonist 7.5, D2 PAM -7.9, Six1-Eya2 blk inconclusive, CtBP-E1A inh inconclusive and TRPML1 inh 1.8.
Screening O=C(CCN1C(=O)c2ccccc2C1=O)NCc1ccco1 returned TRPV1 potentiator -1.0, TRPML1 agonist 0.2, D2 PAM -12.7, Six1-Eya2 blk -11.7, CtBP-E1A inh -6.8 and TRPML1 inh -4.5.
`CN(CC(=O)Nc1ccc(F)cc1)C(=O)COC(=O)c1ccc(=O)n(Cc2ccccc2)n1` gave TRPV1 potentiator 15.1, TRPML1 agonist -0.2, D2 PAM 1.3, Six1-Eya2 blk -1.3, CtBP-E1A inh 1.2 and TRPML1 inh -6.4.
`COc1ccc(C(=O)NCc2nnc(SCC(=O)N3CCCC3)o2)cc1OC` gave TRPV1 potentiator -2.8, TRPML1 agonist 0.1, D2 PAM 5.7, Six1-Eya2 blk 2.0, CtBP-E1A inh -8.0 and TRPML1 inh 4.0.
O=C(c1ccncc1)N1CCN(S(=O)(=O)c2cc(C(F)(F)F)cc(C(F)(F)F)c2)CC1 was read as TRPV1 potentiator -16.5, TRPML1 agonist 0.4, D2 PAM -18.5, Six1-Eya2 blk 3.4, CtBP-E1A inh 7.8 and TRPML1 inh -1.8.
Screening CCn1c(N2CCN(S(=O)(=O)c3ccc(F)cc3)CC2)nc2ccccc21 returned TRPV1 potentiator 3.4, TRPML1 agonist 0.5, D2 PAM -1.1, Six1-Eya2 blk -7.9, CtBP-E1A inh -10.2 and TRPML1 inh -20.8.
O=C(COc1ccc(Br)cc1)NCCO was read as TRPV1 potentiator 1.8, TRPML1 agonist -0.3, D2 PAM -17.4, Six1-Eya2 blk 14.0, CtBP-E1A inh 0.0 and TRPML1 inh -3.7.
Screening COc1cc(C)cc(C(=O)O)c1C1=C(O)c2cccc(O)c2C(=O)C1=O returned TRPV1 potentiator -18.1, D2 PAM 12.8, Six1-Eya2 blk -12.9 and CtBP-E1A inh -1.4.
`Cc1cc(/C=C2\NC(=O)NC2=O)c(C)n1-c1ccc(N2CCOCC2)cc1` gave TRPML1 agonist 0.1, D2 PAM -4.1, Six1-Eya2 blk -9.8, CtBP-E1A inh 0.9 and TRPML1 inh -14.4.
`Cc1ccc(C(=O)N/C(=C\c2ccccc2)C(=O)OCc2ccccc2)cc1` gave TRPV1 potentiator -9.9, TRPML1 agonist 0.6, D2 PAM -18.7, Six1-Eya2 blk 3.2, CtBP-E1A inh -2.2 and TRPML1 inh 16.5.
For O=C(CN1C(=O)c2cccc3cccc1c23)Nc1ccc(S(=O)(=O)N2CCOCC2)cc1 the results were TRPV1 potentiator -6.3, TRPML1 agonist 0.1, D2 PAM -7.0, Six1-Eya2 blk -2.6, CtBP-E1A inh 10.7 and TRPML1 inh -18.6.
COc1ccc(CCNC(=O)c2c(O)c3cc(OC)c(OC)cc3[nH]c2=O)cc1OC was read as TRPML1 agonist -0.7, D2 PAM -11.3, Six1-Eya2 blk -5.6, CtBP-E1A inh -8.9 and TRPML1 inh -29.3.
`COc1c(O)ccc2cnn(-c3ccccc3C)c(=O)c12` gave TRPV1 potentiator 3.3, TRPML1 agonist -0.2, D2 PAM 2.7, Six1-Eya2 blk 16.2, CtBP-E1A inh 23.3 and TRPML1 inh -4.6.
For COc1cccc(NC(=O)C(Cc2ccccc2)n2cccc2)c1 (stereo unspecified) the results were TRPV1 potentiator -4.7, TRPML1 agonist 0.8, D2 PAM -7.3, Six1-Eya2 blk -13.9, CtBP-E1A inh -1.8 and TRPML1 inh 15.6.

Screens (PubChem BioAssay)
